# From PubChem
# KSHV LANA nucl = inhibitors of KSHV LANA-nucleosome binding, primary screen, biochemical, fluorescence polarization, FITC-LANA1-23, chicken nucleosomes. FITC-LANA1-23 / chicken nucleosome fluorescence polarization; hits give low values. z-score (concentration not given with the values). hit rate 0.3% among 51,000. AID 720717, 2013;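 active means both repeat wells score below -2 in polarization z-score versus plate sample wells, excluding overly bright wells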;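 further: 100 nL library stock added to about 30 µL; numbers are from one replicate; some results filed as inactive read as strong as hits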
#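 test system = FITC-LANA peptide and chicken nucleosomes | amount = 240 nM purified chicken nucleosomes (480 nM peptide binding sites), final | reagent = 50 nM FITC-LANA1-23 probe | medium = TEN-BT buffer, pH 7.5 | doses = single compound addition by pin transfer, 100 nL per well | timing = 10–45 min, room temperature | detection = fluorescence polarization | repeats = duplicate plates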
# Ab BasE inh = BasE siderophore enzyme inhibitors, primary screen, biochemical, Acinetobacter baumannii ATCC 17978, fluorescence polarization; purified BasE, fluorescence polarization binding displacement; hit rate 0.1% among 84,000; inhibition, % (concentration not given with the values);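 active means both replicates above 25% with normal brightness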;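 further: 0% = negative plate control signal and 100% = positive plate control signal; stock transfer was 100 nL into about 30 µL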
# An asterisk follows results filed as active; nt = no result given; & = joins results of further samples. This is a subset; rates above refer to the full screens.
# Values run as follows: Ab BasE inh	KSHV LANA nucl
COc1cccc(CN(Cc2nnnn2C2CCCCC2)CC2CCCO2)c1 (configuration not stated)
 : 1.2	-0.75
CC(C)(C)c1ccc(NC(=O)NNc2ncccc2C#N)cc1
 : 4.2	-0.16
CSc1sc(C2=NNC(O)(C(F)(F)F)C2)c2c1C(=O)CCC2(C)C (configuration not stated)
 : 2.0	nt
CCN(C(=O)Cn1cc(C(=O)c2cccs2)c2ccccc21)c1ccccc1
 : 0.3	-0.11
CN(C)S(=O)(=O)c1ccc(N2CCCC2)c(C(=O)OCn2nnc3ccccc3c2=O)c1
 : -0.6	nt
COc1ccc(NC(=O)CN(C)c2nc3cc(C)nn3c3ccccc23)cc1
 : 3.2	nt
O=C(CCN1CCCC1)c1ccc(-c2ccccc2)cc1
 : nt	0.46
Cc1cc(C)n2nc(CC#N)c(C#N)c2n1
 : nt	0.01
O=C(COc1ccccc1)N/N=C/c1ccccc1
 : 1.0	-0.13
CC(=O)N1CCc2cc(NC(=S)NCc3cccs3)ccc21
 : -0.2	nt
COc1ccc(NC(=O)COc2cccc3c2CCN(C)C3=O)cc1
 : 0.6	-1.5
COc1ccc(C(CNC(=O)COc2ccccc2)N2CCCCC2)cc1 (configuration not stated)
 : -0.5	nt
O=C(CSc1ncnc2c1oc1ccccc12)c1ccc(Cl)cc1
 : -2.2	-0.27
CCOC(=O)c1ccc(NC(=S)NC2CCS(=O)(=O)C2)cc1 (configuration not stated)
 : -0.5	nt
O=C(Nc1ccccc1N1CCOCC1)c1cc(C2CC2)nn1-c1ccccc1
 : -0.5	nt
N#C/C(=C\c1cc(Cl)cc(Cl)c1)c1cccnc1
 : 2.3	-0.19
O=C(CO/N=C/c1ccco1)Nc1ccc(OC(F)F)cc1
 : -3.0	nt
O=C(O)C1COc2ccccc2C1 (configuration not stated)
 : -0.2	nt
Cc1cccc(C(=O)C2CCN(S(=O)(=O)c3ccc(C(=O)O)cc3)CC2)c1
 : 3.7	0.68
COc1cc(OC)cc(-c2nnc(SCC(=O)N=c3sccn3Cc3ccc(C)cc3)o2)c1
 : 2.9	nt
COc1ccc2c(c1)[nH]c1c(=O)n(CCN3CCCCC3C)cnc12 (configuration not stated)
 : -22	-0.22
Cc1ccc(C)c(NCN2C(=O)CSC2=O)c1
 : -0.2	-1.3
O=C(NCCN1CCOCC1)c1c(Cl)cccc1Cl
 : 0.9	0.51
Cc1cnc(NC(=O)c2cccc3ccccc23)s1
 : -0.3	nt
COc1ccccc1-c1nnc(SCC(=O)C(C)(C)C)n1Cc1ccco1
 : -1.4	nt
CC1CCN(C(=O)c2ccccc2NC(=O)Nc2ccccc2)CC1
 : 2.3	-0.47
COC(=O)c1ccccc1NC(=O)COC(=O)/C=C/c1ccco1
 : 2.4	nt
c1c2c(cc3c1OCO3)OCN(CC13CC4CC(CC(C4)C1)C3)C2
 : -1.4	-0.12
CC(C)c1ccc(NC(=S)Nc2cccc(C(F)(F)F)c2)cc1
 : 2.4	nt
O=C(NCc1ccc(-c2csnn2)cc1)c1cc(Cl)cc(Cl)c1
 : -0.2	nt
C=CCN1CNc2c(c(=O)[nH]c(=S)n2-c2cccc(C)c2C)C1
 : -2.1	2.2
C=CCn1c(SC(C#N)Cc2ccc(C)cc2)nnc1C1COc2ccccc2O1 (configuration not stated)
 : -0.2	nt
Cc1cc2nc(-n3nnc4ccccc43)c3ccccc3n2n1
 : 2.2	nt
C=CCn1c(C)c(C(=O)OC)sc1=Nc1ccccc1
 : 5.5	-0.4
COC(=O)CSc1nc(N)nc(C)c1Br
 : -0.7	0.64
COc1ccc(C(CC(=O)c2ccco2)Sc2cccc3cccnc23)cc1OC (configuration not stated)
 : 2.5	nt
CNC(=S)NNc1cc(C)c2c(C)nn(C)c2n1
 : 4.6	0.57
S=c1[nH]c(=S)c2cnc(N3CCOCC3)nc2[nH]1
 : 0.3	nt
CCNc1nc2ccccc2s1
 : -2.9	0.49
Nn1c(CCn2c3ccccc3c3ccccc32)n[nH]c1=S
 : 1.0	0.034
CC1=CCC(C(C)(C)NC(=O)c2ccccc2)C/C1=N/O (configuration not stated)
 : -1.1	0.059
COc1ccc(CNC(=O)COC(=O)c2ccccc2NS(C)(=O)=O)cc1OC
 : 2.2	nt
Cc1ccc(N2C=NNC(=O)C2)cc1C
 : 2.5	0.38
Clc1ccccc1CSc1cnc2ccccc2n1
 : nt	-0.21
COc1ccccc1CC(=O)NC1CCCCC1
 : 0.4	nt
CCOc1ccc(-n2ccnc2SCC(=O)Nc2ccccc2)cc1
 : 4.5	0.21
C=CCn1cnnc1SCC(=O)c1ccccc1OC
 : -2.2	nt
COC(=O)c1cc(COC(=O)CCc2nc3ccccc3s2)oc1C
 : 1.3	nt
CC(Cc1nnc(SCC(=O)c2ccc[nH]2)n1N)c1ccccc1 (configuration not stated)
 : 1.8	nt
O=C1OCc2cccc3cccc(c23)S(=O)c2cccc3cccc1c23 (configuration not stated)
 : 5.6	0.42
Cc1c(Cl)cccc1N1CC(C)(C)C1=O
 : nt	0.55
O=C1c2oc3ccccc3c(=O)c2C(c2ccc(F)cc2)N1c1ccccn1 (configuration not stated)
 : -0.6	-0.46
CS(=O)(=O)c1ccc2nc(NC(=O)CN3C(=O)c4ccccc4C3=O)sc2c1
 : -1.1	-0.7
CCc1cccc(-n2nnc(S(=O)(=O)c3ccccc3)c2C)c1
 : 1.5	0.96
Cc1cc2nc(C)c(CCC(=O)O)c(C)n2n1
 : -0.9	nt
N#CCCN1CCN(S(=O)(=O)c2ccc(S(=O)(=O)N3CCCC3)cc2)CC1
 : -0.6	0.43
Cc1cc(C)n2nc(C(=O)OCc3ncc(-c4ccccc4)o3)nc2n1
 : -2.6	nt
COc1ccc(CN2C3CCCC2CC(NC(=O)NC2CCCCC2)C3)cc1 (configuration not stated)
 : -0.2	0.26
NC(=O)c1cccc(S(=O)(=O)N2CCOCC2)c1
 : 1.4	0.16
COc1ccc(-n2nc3c(c2NC(=O)c2ccccc2C(F)(F)F)CSC3)cc1
 : 2.6	nt

# Following part:
# Values run as follows: Ab BasE inh	KSHV LANA nucl
O=C(Nc1ccc2oc3ccccc3c2c1)c1ccc2nc[nH]c2c1
 : 0.0	nt
O=C(c1ccccc1)C1CCN(S(=O)(=O)c2ccc(Cl)cc2)CC1
 : 2.7	nt
CCn1c(=O)c(C(=O)CN2CCCCC2)c(N)n(Cc2ccccc2)c1=O
 : 3.8	nt
O=C1CSc2ccc(C(=O)OCC(=O)N3CCCc4ccccc43)cc2N1
 : 0.4	nt
CCCN(C(=O)C(C)C)c1nnc(-c2cc(OC)c(OC)c(OC)c2)s1
 : -15	-0.15
CNc1ccccc1C(=O)OCC(=O)c1c[nH]c2ccccc12
 : -3.0	nt
Cc1cccn2c(=O)cc(CN3CCN(c4cnn(-c5ccccc5)c(=O)c4Cl)CC3)nc12
 : 0.6	nt
CC(=O)NC1=NN(C(C)=O)C(c2cccc3ccccc23)N1C(C)=O (configuration not stated)
 : 0.2	nt
CC1=NN(c2ccc(-c3csnn3)cc2)C(=O)C1
 : 0.3	nt
S=C(NCc1ccc2c(c1)OCO2)N1CCN(c2ccccn2)CC1
 : -1.3	nt
CCN1CCCC1CNC(=O)c1ccccc1Sc1ccccc1C#N (configuration not stated)
 : -2.6	nt
CC1(C)Cc2nc3sc(C(=O)NCCO)c(N)c3cc2CS1
 : 2.7	-0.88
CC(C)CCN(Cc1ccco1)S(=O)(=O)c1csc(C(N)=O)c1
 : 3.6	nt
Cc1cc(NC2CCCCC2)n2ncnc2n1
 : -1.9	-0.12
O=C(CC1c2ccccc2Oc2ccccc21)NCCOc1ccccc1Cl
 : 2.0	nt

# 2 of the compounds above, with tabs:
SMILES	Ab BasE inh	KSHV LANA nucl
CC(=O)NC1=NN(C(C)=O)C(c2cccc3ccccc23)N1C(C)=O (configuration not stated)	0.2	nt
CC1=NN(c2ccc(-c3csnn3)cc2)C(=O)C1	0.3	nt

# Next section:
# Values run as follows: Ab BasE inh	KSHV LANA nucl
Cc1cc(C)c(C#N)c(SCC(=O)N(c2ccccc2)C2CCS(=O)(=O)C2)n1 (configuration not stated)
 : -1.2	nt
NC(=S)NCC1CCCO1 (configuration not stated)
 : 2.9	nt
Cc1ccc2nc(C)n3c4ccccc4c(NC=O)c3c2c1
 : -0.6	nt
CC(Sc1nnc(Nc2ccc(C(C)C)cc2)s1)C(N)=O (configuration not stated)
 : 0.2	nt
CNCCCC1c2ccccc2C=Cc2ccccc21
 : -2.2	0.089&-0.68
O=C1CC(c2nc3ccccc3[nH]2)CN1c1cccc2ccccc12 (configuration not stated)
 : -3.3	0.089
COC(=O)C1C(c2ccc(N(C)C)cc2)C(C(=O)OC)S(=O)(=O)CS1(=O)=O (configuration not stated)
 : -2.2	0.38
O=C(/C=C/Nc1ccccc1C(F)(F)F)c1ccco1
 : -2.4	-0.67
CO/N=C(\C(=O)O)c1csc(N)n1
 : -1.2	0.43
COCCNC(=O)Cc1c(C)nc2c(-c3ccccc3)c(C)nn2c1C
 : 2.2	0.072
Cc1ccc(C(=O)CC(Sc2ccccc2N)c2ccsc2)cc1 (configuration not stated)
 : 0.0	nt
O=C(NCC1OCCc2ccccc21)c1ccccc1 (configuration not stated)
 : -1.5	-0.35
CC1=CCCC(C)(C)C1/C=C/C(C)=N/O (configuration not stated)
 : -0.5	-1.1
Cc1cc2ncn(C(=O)N(C)C)c2cc1C
 : -0.5	-0.32
CC(C)NC(=O)C1CCN(c2ccc(S(=O)(=O)N3CCOCC3)cc2Cl)CC1
 : 0.6	-1.7
CCCOP(=O)(c1ccccc1)c1ccccc1
 : 3.6	0.087
CCOC(=O)C1CCN(Cc2ccccc2)CC1=O (configuration not stated)
 : 1.2	-0.76
CCOC(=O)Cc1c(C)nc2nc(N)[nH]n2c1=O
 : -1.7	0.27
CCOC(=O)Cc1csc(SCC(=O)C(C#N)c2nc(C)cs2)n1 (configuration not stated)
 : -0.9	nt
CC(C)NC(=O)CCCN1C(=O)C(c2ccccc2)Oc2cccnc21 (configuration not stated)
 : -0.2	0.34
Cn1[nH]c(CP(=O)(c2ccccc2)c2ccccc2)cc1=O
 : -1.6	nt
O=C(N/N=C/c1ccc(OC(=O)c2ccco2)cc1)c1ccccn1
 : 0.7	0.48
O=C(c1ccc(S(=O)(=O)N2CCOCC2)cc1)N1CCN(c2cccc(Cl)c2)CC1
 : 1.1	nt
COc1ccc(C2=NCC(CSc3nnc(-c4ccc5c(c4)OCO5)o3)S2)cc1 (configuration not stated)
 : 0.8	nt
COc1ccc(S(=O)(=O)NCC(c2ccc3c(c2)OCO3)N2CCN(C)CC2)cc1 (configuration not stated)
 : -1.1	-1.6
O=C(O)CSC1CC(=O)N(c2cccc(C(F)(F)F)c2)C1=O (configuration not stated)
 : 1.9	nt
COC(=O)c1sc2nc[nH]c(=O)c2c1C
 : -2.3	-0.14
CC(Sc1ccccc1)C(=O)Nc1ccccc1Cl (configuration not stated)
 : 0.3	-1.1
O=C(O)CCC(C(=O)O)N1C(=O)/C(=C\c2ccco2)SC1=S (configuration not stated)
 : 4.0	-1.3
CCCCN(C)C(=O)Cn1ncc2c(C)n(Cc3ccc(C)cc3)c(C)c2c1=O
 : 0.3	1.5
CCO/C(C)=C(\C#N)C(=O)O
 : -0.2	nt
CC(C(=O)N1CCN(c2ccc(F)cc2)CC1)N1C(=O)c2ccccc2C1=O (configuration not stated)
 : -1.3	nt
Cc1cc(C)c2c(-c3ccccc3)nc(SCC#N)n2n1
 : 0.2	nt
COc1cccc(CN(C)C(=O)/C=C/c2ccco2)c1OC
 : 1.1	nt
CCN(CC)S(=O)(=O)c1ccc(N2CCCC2)c(C(=O)OCC(=O)c2cccs2)c1
 : -2.7	nt
O=c1[nH]c2ccccc2cc1CN(CC1CCCO1)S(=O)(=O)c1ccccc1 (configuration not stated)
 : 0.8	-1.1
CCCCn1nc(C(N)=O)c2ccccc2c1=O
 : 0.5	nt
C/C(=N/O)c1ccc(N2C(=O)C3C4C=CC(C4)C3C2=O)cc1 (configuration not stated)
 : 1.7	0.2
O=C1COc2cc(O)ccc21
 : 7.4	nt
CCCC(C(=O)Nc1ccc2c(c1)OCO2)c1ccccc1 (configuration not stated)
 : 0.0	nt
O=C(COc1ccc2ccc(=O)oc2c1)NC1CCCCC1
 : -1.3	nt
CC(=O)Nc1ccc(SCC(=O)N(C)Cc2ccco2)cc1
 : 2.5	nt
COC(=O)CNC(=O)CC12CC3CC(CC(C3)C1)C2
 : 0.9	nt
COc1ccc(N=C2SCC(=O)N2c2ccc(OC)cc2)cc1
 : 0.9	-0.2
CN(Cc1ccccc1)S(=O)(=O)c1cccc2cccnc12
 : -2.7	0.75
Cc1cc(NNC(=O)c2ccccc2O)c2cccc(C)c2n1
 : 9.4	nt
Cc1ccc2nc(NNC(=O)c3ccccc3)sc2c1
 : -1.8	-0.9
Cc1oc(-c2ccccc2)nc1CSc1nc2c(c(=O)[nH]1)CCC2
 : 0.5	0.44
CCCNC(=O)C1CNc2ccccc2O1 (configuration not stated)
 : 0.1	nt
CS/C(=N\S(=O)(=O)c1cccs1)NC(=O)c1ccccc1
 : 2.1	nt

# Entries of single compounds as entered above. Values in the order: Ab BasE inh | KSHV LANA nucl
# Entry for Cc1oc(-c2ccccc2)nc1CSc1nc2c(c(=O)[nH]1)CCC2 = 0.5 | 0.44
# Entry for CS/C(=N\S(=O)(=O)c1cccs1)NC(=O)c1ccccc1 = 2.1 | nt
# Entry for Cc1ccc2nc(NNC(=O)c3ccccc3)sc2c1 = -1.8 | -0.9
# Entry for CCCNC(=O)C1CNc2ccccc2O1 (configuration not stated) = 0.1 | nt
